# Screening data (PubChem BioAssay)
# BJeLR lethal = kills HRASV12-expressing BJeLR cells. BJeLR (HRASV12) viability, CellTiter-Glo ATP luminescence, 48 h; reference of the scale not given here. inhibition, % (test concentration not listed). 300,000 compounds, 0.17% hits. AID 1554;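 active = replicate mean above 50%; inconclusive = above 50% but judged a plate artefact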;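 also: 50 nL library stock added to about 25 µL; numbers are from one replicate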
# PrP UTR inh = inhibition of PrP 5' UTR reporter expression. cell-based PrP 5' UTR mRNA reporter, plate reader. AID 488862. inhibition, % (no concentration beside the values). 340,000 compounds, 0.35% hits;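 active = every replicate at 50% or more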;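 also: 0 = median of the neutral control wells; tested in H4 reporter cells; numbers are from one replicate; inactives centre near -14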
# Mtb hypoxia inh = reduces hypoxia-regulated biosensor signal in M. tuberculosis; fluorescence inhibition, % (test concentration not listed); 300,000 compounds, 0.1% hits; M. tuberculosis hypoxia-regulated fluorescent reporter, fluorescence;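 active = 35 to 45% if threefold the growth effect, above 45% if 1.5-fold the growth effect; inactive = the rest, general growth blockers included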;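 also: wells of about 50 µL received 100 nL stock; 0% = vehicle wells and 100% = reference inhibitor wells; whole bacteria with a GFP reporter of the hypoxia response; strong numbers were not always called active; many hits fall short of the cut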
# Autofluor counter = compound fluorescence in toxin protease inhibitor counterscreen; compound autofluorescence counterscreen, microsphere flow cytometry; active compounds read high; fluorescence intensity (test concentration not listed); 360,000 compounds, 3.1% hits; AID 624483;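 active = at least 3 SD above the mean of all compounds, about 16000 in these data; inconclusive = too few beads counted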;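 also: 100 nL of 1 mM stock went into each well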
# Sa ugtP lethal = growth inhibition of S. aureus ugtP deletion strain | S. aureus RN4220 ugtP deletion, OD600 growth, 16 h; some inactives read as strong as hits | AID 1259309 | growth inhibition, % (concentration not given with the values) | 330,000 compounds, 0.54% hits;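 active = z-score under -3 and OD600 up to 0.15 on both plates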;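 also: plate controls were untreated wells for no effect and antibiotic for full effect; wells of about 80 µL received 100 nL stock; the first replicate is given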
# Sa RN4220 lethal = kills Staphylococcus aureus RN4220. S. aureus RN4220 growth, OD600, 16 h. inhibition, % (no concentration beside the values). 330,000 compounds, 0.33% hits;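 active = z-score of -3 or lower and OD600 up to 0.18 on both plates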;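 also: plate controls were untreated cells for no effect and reference antibiotic for full effect; stock transfer was 100 nL into about 80 µL; one replicate is shown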
# Mtb hypoxia inh growth = second read-out of Mtb hypoxia inh, no call of its own (marks repeat the call); growth inhibition, %; measured here: M. tuberculosis growth (absorbance);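 0% = vehicle and 100% = reference antibiotic; read after six days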
# * marks the source's active call; other numbers are inactive results; ? = inconclusive; · = no result given; & = joins results of further samples.
SMILES,BJeLR lethal,PrP UTR inh,Mtb hypoxia inh,Mtb hypoxia inh growth,Autofluor counter,Sa ugtP lethal,Sa RN4220 lethal
CC(C)n1nccc1N(Cc1ccc(C#N)cc1)S(=O)(=O)c1ccccc1,-2.4,-12.4,4.4,1.6,5994,3.6,9.1
CCN(CC)CCCN=C1NC(c2cccc(F)c2)C(C(=O)OC)=C(C)N1Cc1ccccc1 (stereo unspecified),·,·,17.0,13.4,·,-8.4,5.0
Nc1nonc1-n1nnc(C(=O)N/N=C/c2cc(Br)ccc2O)c1CNc1ccccc1,16.6,0.7,·,·,5052,·,·
N#CCC1c2ccccc2CCN1C(=O)Nc1cccc(Cl)c1 (stereo unspecified),7.5,-21.0,7.2,4.6,23621*,-7.4,-1.0
COc1ccc(/C=N/NC(=O)c2nnn(-c3nonc3N)c2-c2cccs2)cc1OC,-3.0,5.0,·,·,5913,·,·
CCOC(=O)C1=C(N)Oc2c(oc(CO)cc2=O)C1c1ccc(Cl)cc1 (stereo unspecified),-10.2,-37.3,-7.0,14.5,4793,-26.0,-5.3
CC12CCC(C(=O)O)(CC1=NO)C2(C)C (stereo unspecified),·,·,-8.6,-1.5,·,-2.6&3.6,-1.2&3.6
COc1cc(N=Nc2ccc3ccccc3c2)ccc1O,2.7,-90.9,-3.5,-0.5,3795,93.7*,6.3
Cc1[nH]nc2c1C(c1ccoc1)C(C#N)=C(N)O2 (stereo unspecified),0.7,1.8,3.7,9.5,3843,10.1,6.0
Cc1ccc(-c2nnn(CC(=O)Nc3ccccc3N3CCOCC3)n2)cc1,4.4,6.9,3.9,0.8,7835,-3.0,-2.4
CN(C)CCN(C(=O)C1CCN(S(=O)(=O)c2cccs2)CC1)c1nc2ccccc2s1,5.6,-17.9,3.7,-1.5,6023,3.8,-0.5
Cn1c(N/N=C/c2cccs2)cc(=O)n(C)c1=O,-2.6,-9.8,·,·,2928,·,·
CC(=O)c1ccc(NC(=O)CN2CCN(c3ncccn3)CC2)cc1,1.8,2.4,6.9,8.1,9459,-0.7,2.4
O=C(NCCN1CCOCC1)c1ccc(S(=O)(=O)Nc2ccccc2)cc1,·,-9.6,14.6,4.4,·,7.3,6.5
O=C(NC1CCCN(Cc2ccc(Cl)cc2)C1)c1c(F)ccc(F)c1F (stereo unspecified),-6.0,-8.8,-11.9,8.5,5352,-3.0,-1.2
CCN1C(=O)C2C(C1=O)N1C(c3cccs3)C3C(=O)N(CC)C(=O)C3N1C2c1cccs1 (stereo unspecified),1.5,-23.6,-8.5,3.9,3254,-2.3,1.7
CS(=O)(=O)N1CCc2cc(C(=O)N3CCN(c4ccc(F)cc4)CC3)ccc21,12.7,-11.5,5.3,1.9,4496,2.1,1.8
CN=C1SC(CC(=O)Nc2ccccc2F)C(=O)N1C (stereo unspecified),-21.7,-0.9,0.3,6.1,5395,-2.4,3.3
CC(C)CNc1nc(NC(C)(C)C)nc(Oc2ccc(=O)[nH]n2)n1,-0.4,-5.4,0.9,4.4,4466,3.6,0.1
COc1ccc(-n2nc(C(=O)NCC(=O)N3CCC(C(N)=O)CC3)c3ccccc3c2=O)cc1,-4.2,-1.9,-4.7,-7.8,4136,-4.7,2.5
CCOC(=O)C1CCCN(C(=O)c2cc(COc3ccc(C)nc3)on2)C1 (stereo unspecified),0.3,-30.9,-3.1,-3.9,5533,-3.0,-0.5
CCN1C[C@@H]2[C@@H]3C(=O)N(C)C(=O)[C@@H]3[C@](CC)(C(=O)OC)N2C1=NCc1ccccc1,·,-13.7,1.3,2.9,3987,3.1,2.6
COCCn1c(C)cc(C(=O)CSc2nc3ccccc3o2)c1C,4.0,-80.3,3.8,9.9,3408,10.7,4.0
COCCCNC(=O)/C=C/c1ccc(Cl)cc1Cl,-11.7,-12.0,22.8,21.9,3758,2.5,1.2
O=C(CSc1ccc2nnc(-c3ccccn3)n2n1)Nc1ccc2c(c1)OCCO2,-5.9,-3.6,1.4,-3.0,5376,-3.7,-4.0
CC(C)OC(=O)Nc1ccc(-c2ccc(NC(=O)OC(C)C)cc2Cl)c(Cl)c1,-11.7,-12.7,-7.9,1.6,3550,4.3,-1.9
CCCN(CCO)CCCc1ccccc1,8.0,-14.5,2.3,9.5,3212,-0.5,4.3
COc1ccc(-c2nn(-c3ccccc3)cc2CO)cc1,1.0,-17.5,·,·,2183,4.4,0.8
CN1CC(=O)N(CC(=O)N2CCC(Cc3ccccc3)CC2)C1=O,-2.8,-22.1,2.7,-4.9,5156,1.1,7.3
O=C(O)c1cc([N+](=O)[O-])ccc1NCc1ccccn1,·,-14.9,2.3,5.4,3601,-10.5,2.5
O=C(CCSc1ccccc1)NNC(=O)c1ccccc1F,-5.4,-18.7,7.7,10.3,?,5.3,0.6
O=C(CSc1nncn1-c1ccccc1)Nc1cccc(S(=O)(=O)N2CCCCC2)c1,-5.5,·,9.5,-0.4,·,1.7,1.6
CC(C)(C)C1COc2ccccc2N1C(=O)c1ccccc1Cl (stereo unspecified),-1.4,1.4,2.0,3.2,3391,22.0,8.9
Cc1cccc(-c2nc(C)cc(=O)[nH]2)c1,7.0,-21.5,12.4,3.5,5511,5.2,4.1
COc1ccc(CCNC(=O)c2cc(=O)c3cc(C)ccc3o2)cc1OC,-1.2,·,-2.7,11.8,3759,0.1,0.5
Cc1cc(SCC(=O)N2CCN(C(=O)c3ccco3)CC2)c(C)cc1Br,·,-20.2,13.5,13.7,3684,4.5,3.8
COc1ccc(Nc2ccc(Cl)nn2)cc1,-1.8,-13.4,18.1,13.3,3500,4.8,5.3
CCC(=O)Nc1cccc(SC)c1,2.4,1.5,-0.9,1.0,2042,-1.7,9.4
CSc1ccccc1NC(=O)c1cc(-c2ccco2)on1,-12.1,-40.2,8.5,4.6,5512,15.3,-1.7
COc1ccccc1-c1cc(C(=O)N/N=C/C=C/c2ccccc2[N+](=O)[O-])c2ccccc2n1,-1.1,-15.5,·,·,5169,·,·

# Three of the compounds above, bar-delimited:
SMILES | BJeLR lethal | PrP UTR inh | Mtb hypoxia inh | Mtb hypoxia inh growth | Autofluor counter | Sa ugtP lethal | Sa RN4220 lethal
CC(C)CNc1nc(NC(C)(C)C)nc(Oc2ccc(=O)[nH]n2)n1 | -0.4 | -5.4 | 0.9 | 4.4 | 4466 | 3.6 | 0.1
COc1ccc(-n2nc(C(=O)NCC(=O)N3CCC(C(N)=O)CC3)c3ccccc3c2=O)cc1 | -4.2 | -1.9 | -4.7 | -7.8 | 4136 | -4.7 | 2.5
CCOC(=O)C1CCCN(C(=O)c2cc(COc3ccc(C)nc3)on2)C1 (stereo unspecified) | 0.3 | -30.9 | -3.1 | -3.9 | 5533 | -3.0 | -0.5

# Further results follow.
SMILES,BJeLR lethal,PrP UTR inh,Mtb hypoxia inh,Mtb hypoxia inh growth,Autofluor counter,Sa ugtP lethal,Sa RN4220 lethal
CCCC1=NN(C(=O)Cc2ccc([N+](=O)[O-])cc2)C(O)(C(F)(F)F)C1 (stereo unspecified),-4.9,-18.5,2.9,-3.8,4912,5.0,9.0
COc1cccc(NC(=O)CN2C(=O)CSc3ccc(S(=O)(=O)N4CCCCC4)cc32)c1,3.9,3.5,1.5,4.3,5281,1.1,-1.3
CC(C)Cc1oc(C(=O)O)cc1CN,-8.9,-14.6,3.6,-1.1,8886,2.2,0.9
CCN(C(=O)COC(=O)c1ccc(OC)c(S(=O)(=O)N2CCCc3ccccc32)c1)C1CCS(=O)(=O)C1 (stereo unspecified),0.2,-3.4,4.9,2.0,4321,8.2,0.9
C=CCn1c(=O)c(C(=O)NCc2ccccc2)c(O)c2ccccc21,-0.5,-18.3,7.8,7.5,3557,25.2,3.2
COc1ccc(-c2cc(C)no2)cc1S(=O)(=O)NCCCN1CCCCCC1,4.0,1.7,7.9,3.8,6396,-2.8,-1.3
O=S(=O)(Oc1ccc(C(=S)N2CCOCC2)cc1)c1ccc(Cl)cc1,-2.4,-5.5,12.5,5.6,3029,13.3,6.8
COc1ccc(CCNC(=O)CSc2nc(O)c(C(C)C)c(=O)[nH]2)cc1OC,15.0,-28.1,3.7,-1.5,7728,11.2,5.3
CCC(=O)Nc1ccc(S(=O)(=O)Nc2cccc(C)c2)cc1OC,5.2,-22.4,3.3,-5.0,23804*,-1.4,4.8
Cc1ccoc1C(=O)N1CCCCC1C(=O)O (stereo unspecified),-2.9,-31.3,-2.1,-3.9,2462,-4.1,-1.8
COc1ccc(/C(O)=C2\C(=O)C(=O)N(CCN(C)C)C2c2cc(OC)c(OC)c(OC)c2)c(C)c1 (stereo unspecified),-11.6,-18.6,13.6,13.2,2980,-2.2,-4.0
Fc1cccc(-n2c(-c3ccco3)nc3nc4ccccc4nc32)c1,-1.7,-14.7,-6.4,-1.8,2943,-6.5,20.4
COc1cc2c(cc1OC)C(COc1ccc(F)cc1)N(C(=O)c1ccco1)CC2 (stereo unspecified),9.3,·,4.2,6.8,10078,-0.5,2.5
COc1ccc(OC)c(-n2c(=S)[nH]c3c(sc(=S)n3-c3ccccc3)c2=O)c1,5.6,-41.4,-2.1,0.6,3963,4.6,6.9
CCc1nc2nc(C)c(NS(=O)(=O)c3ccc(C)c(C)c3)c(=O)n2[nH]1,-0.2,-8.4,15.6,22.1,4112,2.0,3.0
CC(Oc1ncnc2ccccc12)C(=O)Nc1cccc(S(=O)(=O)N2CCOCC2)c1 (stereo unspecified),-8.7,-24.9,4.1,1.5,2162,15.7,-0.1
O=C(Nc1ccccc1)N1CCN(Cc2ccc3c(c2)OCO3)CC1,0.4,29.6,·,·,4491,-1.0,3.3
O=C1OCCN1C(=O)[C@H]1[C@H](c2ccc(Cl)cc2)C(c2ccc(F)cc2)=NN1c1ccc(Br)cc1,·,3.0,3.9,-3.1,2930,17.5,-2.3
Cc1cccc(Cn2nnc3ccccc32)c1O,7.1,-26.0,15.0,4.5,3497,-0.9,2.7
O=C(Nc1ccccc1C(=O)NCC1CCCO1)c1ccc(Cl)cc1Cl (stereo unspecified),1.6,-8.1,0.5,8.1,5268,4.1,2.9
O=C(COC(=O)c1ccc(N2CCCC2=O)cc1)c1ccccc1,-10.1,-29.2,-4.3,0.6,3517,6.5,1.1
Cc1cc(/C=C2/NC(=O)NC2=O)c(C)n1-c1ccncc1,0.1,-7.7,11.3,15.9,4371,6.1,15.7
CCC(=NNC(=S)Nc1cccc(C)c1)c1ccccc1,·,·,-2.6,1.8,·,36.2,1.1
COc1ccc(C(=O)NCCSc2ccccc2)cc1OC,-7.3,-40.1,6.6,14.4,4036,9.1,5.2
COc1ccc(NC(=O)Cn2c(=O)sc3ccccc32)cc1,0.6,-5.8,12.3,2.8,2398,5.5,-6.4
CCOC(=O)CSc1nnc(CNC(=O)c2ccc(OC)cc2)n1C1CCCCC1,4.2,-11.9,2.0,-1.3,6088,3.9,4.8
CC1CN=C(c2ccccc2)O1 (stereo unspecified),·,-5.6,12.9,8.4,3712,3.1,0.9
CN1C(=O)C2C(C=Cc3ccccc3)N3C(=O)CN(Cc4ccc(-c5ccccc5)cc4)C(=O)[C@@]3(C)C2C1=O (stereo partly specified),·,·,10.9,9.4,·,2.7,6.4
O=C(Cn1cnc2c(OCc3ccccc3)ncnc21)NCc1ccc2[nH]ccc2c1,·,-21.2,-4.9,2.9,2855,8.5,3.5
CCOC(=O)CN1CC23C=CC(O2)C(C(=O)NCc2cccs2)C3C1=O (stereo unspecified),3.4,-18.2,·,·,3041,0.5,1.3
O=C(Cc1cccc(Cl)c1)Nc1ccc(Br)cc1,6.0,-20.3,10.9,2.0,5365,-11.6,-5.7
CC=CC=CC(=O)N1CC2(CC(c3cccc(NC(=O)COc4ccc(Cl)cc4)c3)=NO2)CC1C(N)=O (stereo unspecified),·,·,14.4,3.1,·,-5.8,8.0
CC(CCc1ccccc1)NC(=O)CCNS(=O)(=O)c1ccccc1C(F)(F)F (stereo unspecified),·,1.8,-8.0,4.7,3951,-1.7,0.2
Cc1cccc(NC(=O)c2ccccc2NC(=O)Cc2ccccc2)c1C,-2.5,-20.6,7.5,6.5,6963,-5.1,4.8
